# E coli growth: blocks Escherichia coli growth | OD600, 23 h; hits give low values | OD600 absorbance (test concentration not listed) | 330,000 tested, 0.21% active;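 active = OD600 absorbance below the run mean of sample wells minus 3.6 SD, in any replicate, cut at about 0.56 in these data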;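 also: stock transfer was 300 nL into about 60 µL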
# UCH37 DUB inh: human UCH37 deubiquitinating enzyme inhibition; inhibition, % (test concentration not listed); Q9Y5K5; 330,000 tested, 0.33% active; purified proteasome/UCH37, Ub-AMC cleavage fluorescence; AID 588478;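 active = mean of two replicates above 20%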;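 also: 0% = compound-free wells with enzyme and 100% = wells lacking proteasome; stock transfer was 100 nL into about 20 µL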
# Target sequence (Q9Y5K5 whole entry, looked up): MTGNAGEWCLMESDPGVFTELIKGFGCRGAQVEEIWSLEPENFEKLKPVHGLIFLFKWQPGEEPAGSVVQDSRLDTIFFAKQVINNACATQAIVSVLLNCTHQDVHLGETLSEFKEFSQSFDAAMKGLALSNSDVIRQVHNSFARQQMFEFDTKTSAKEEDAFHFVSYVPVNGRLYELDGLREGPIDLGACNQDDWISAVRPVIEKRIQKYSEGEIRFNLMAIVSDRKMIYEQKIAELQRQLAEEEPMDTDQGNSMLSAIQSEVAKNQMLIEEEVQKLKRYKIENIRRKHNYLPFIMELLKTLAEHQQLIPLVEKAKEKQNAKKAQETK
#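 Material: human UCH37 enzyme supplied as purified proteasome complex. Measure: % inhibition of Ub-AMC cleavage fluorescence. Medium: pH 7.4 Tris-HCl (50 mM) with ovalbumin, ATP-MgCl2, DTT. Times: 30 min preincubation with enzyme, 25 min cleavage at room temperature. Detection: AMC fluorescence intensity at 355/460 nm.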
# FGF22 binding: shifts melting point of recombinant human FGF22; Q9HCT0; recombinant FGF22 thermal shift, SYPRO orange fluorescence; percent of sucrose octasulfate shift, DMSO zero; calls only at 9.99 µM; 340,000 tested, 1.5% active; AID 651658;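 active = melting point raised past a set limit in the mean and every replicate; inconclusive = no clear call; three in four hits are not shown here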
# Target sequence (Q9HCT0 whole entry, looked up): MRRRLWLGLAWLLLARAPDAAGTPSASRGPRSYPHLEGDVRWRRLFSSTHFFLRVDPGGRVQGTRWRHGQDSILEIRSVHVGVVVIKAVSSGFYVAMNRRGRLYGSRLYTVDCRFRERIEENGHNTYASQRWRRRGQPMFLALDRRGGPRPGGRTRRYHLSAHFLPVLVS
# AF4-AF9 inh: inhibitors of human MLL-AF4/AF9 interaction | 350,000 tested, 0.47% active | P42568 | inhibition, % at 10 µM | AlphaScreen, biotin-AF4 peptide binding to FLAG-AF9;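 active = every replicate reaching a set inhibition limit, whatever the replicate mean, cut at about 25% in these data; inconclusive = mean inhibition reaches that limit but some replicates miss it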;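 also: 0% = plate neutral control median and 100% = total signal loss; the record names both 10 and 1 µM as test concentration; the first replicate is given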
# Target sequence (P42568 whole entry, looked up): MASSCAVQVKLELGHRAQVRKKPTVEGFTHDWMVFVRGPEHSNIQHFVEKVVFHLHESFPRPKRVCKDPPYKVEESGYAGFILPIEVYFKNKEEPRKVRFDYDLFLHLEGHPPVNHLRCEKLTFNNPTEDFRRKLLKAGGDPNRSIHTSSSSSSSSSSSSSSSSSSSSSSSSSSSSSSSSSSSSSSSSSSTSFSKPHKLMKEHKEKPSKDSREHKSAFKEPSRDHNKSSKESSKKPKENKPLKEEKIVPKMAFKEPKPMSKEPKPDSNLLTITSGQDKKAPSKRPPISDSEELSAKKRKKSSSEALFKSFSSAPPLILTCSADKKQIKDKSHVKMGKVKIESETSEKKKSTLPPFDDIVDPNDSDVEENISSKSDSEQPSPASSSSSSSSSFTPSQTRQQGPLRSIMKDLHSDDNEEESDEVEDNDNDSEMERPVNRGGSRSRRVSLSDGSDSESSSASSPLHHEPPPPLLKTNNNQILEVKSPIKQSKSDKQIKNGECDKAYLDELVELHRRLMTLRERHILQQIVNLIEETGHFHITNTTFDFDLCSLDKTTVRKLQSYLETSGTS
# Beta apoptosis: blocks beta cell apoptosis; AID 435005; INS-1E cytokine-induced death, ATP luminescence, 48 h; percent of positive-control rescue, neutral wells zero; 300,000 tested, 0.8% active; protection from apoptosis, % (no concentration beside the values);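 active = all replicates at 75% or more, or half of them and the mean; inconclusive = half reach 75% but not the mean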;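 also: 0% = cytokine-treated negative control wells and 100% = positive control rescue; higher means more ATP so stronger rescue from cytokine killing; wells of about 40 µL received 100 nL stock; the first replicate is given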
# rRNA inh HTS: selective bacterial rRNA inhibition in E. coli; GFP signal change (wild-type ribosome), % (test concentration not listed); E. coli WT GFP vs humanized-ribosome RFP mutants, fluorescence, 24 h; hits give low values; DMSO median 0, no signal -100; 350,000 tested, 1.6% active;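 active = significant combined selectivity score with lowered wild-type GFP, culture density cut under 30%, mutant RFP and density less affected; inactive = any of these conditions unmet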; also: one replicate is shown; some compounds called inactive have numbers as strong as hits
# T cruzi inh: T. cruzi replication inhibition; T. cruzi beta-gal in NIH3T3, luminescence, 90 h; 300,000 tested, 1.4% active; AID 1885; inhibition, % (concentration not given with the values);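 active = mean inhibition across valid replicates above about 55%, limit read from the data; inconclusive = mean below that limit but half or more replicates reach it; inactive = mean below it, under half of replicates reach it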;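 also: signal also drops with host cell toxicity which is not excluded here; 0% = plate median of DMSO wells and 100% = zero luminescence signal; higher percent means less beta-gal luminescence so fewer parasites; stock transfer was 50 nL into about 50 µL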
# A1 inh: inhibitors of the anti-apoptotic protein A1, read as caspase activation; MEF A1-2A-BIM cells, Caspase-Glo 3/7 luminescence, 3 h; percent of clofoctol response, vehicle zero; caspase activation, % (concentration not given with the values); 330,000 tested, 0.066% active;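 active = over half of replicate activation scores above 10%, or exactly half above 10 with the replicate mean above 10; inconclusive = replicate mean below 10 yet half the replicates above 10; inactive = over half of replicates below 10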;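 also: wells of about 30 µL received 50 nL stock; many hits fall short of the cut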
# rRNA inh HTS OD600: also measured in rRNA inh HTS; calls as there; OD600 change, %; measured here: OD600 growth;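 optical density of the mix in the first replicate; 0 = DMSO median and -100 = no signal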
# rRNA inh HTS RFP: also measured in rRNA inh HTS; calls as there; RFP signal change, %; measured here: RFP humanized mutant strains;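 first replicate; 0 = DMSO median and -100 = no signal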
# * hit, by the source's call; i = inactive; ? = inconclusive; . = no result given. Some of the compounds tested; rates above refer to the full screens.
SMILES,E coli growth,UCH37 DUB inh,FGF22 binding,AF4-AF9 inh,Beta apoptosis,rRNA inh HTS,rRNA inh HTS OD600,rRNA inh HTS RFP,T cruzi inh,A1 inh
Cc1ccccc1-c1cc(C(=O)NCc2cccc(C(F)(F)F)c2)n(CC2CC(c3cccnc3)=NO2)n1 (stereo not given),0.73,4.2,i,-1.6,0,-2,8,5.9,.,0.7
COc1ccc(C(=O)Nc2ccc(S(=O)(=O)Nc3onc(C)c3C)cc2)cc1,0.71,3.4,.,.,1,.,.,.,-2,0.3
COc1ccc2oc(C(=O)OCC(=O)Nc3ccc(NC(C)=O)cc3)c(C)c2c1,0.63,-33,i,-2.7,-2,5,6,-0.9,2,0.3
COc1ccc(NC(=O)Cc2c(Cl)cccc2Cl)cn1,0.69,5.5,i,-0.9,0,19,24,2.0,-16,1.4
CCCCn1nc(NC(=O)COC)c2cc3ccc(C)cc3nc21,0.66,-67,.,.,.,.,.,.,-15,0.4
NC(=O)C1CCN(C(=O)CSc2ccsc2[N+](=O)[O-])CC1,0.68,1.0,i,0.6,.,.,.,.,.,.
CC(C(=O)N1c2ccc(F)cc2CCC1C)N1C(=O)c2ccccc2C1=O (stereo not given),0.7,5.1,.,.,-5,.,.,.,-6,-0.2
CC1CN(C(=O)COC(=O)c2ccc(Cl)c(N)c2)CC(C)O1 (stereo not given),.,.,i,0.8,-14,6,18,-1.2,-7,0.4
O=C(CN1C(=O)c2ccccc2C1=O)Nc1nccs1,0.66,1.1,i,.,-5,-6,-5,5.6,1,0.5
CCOC(=O)c1ccc(NC(=S)N2CCCC2)cc1,0.65,0.9,i,-0.2,-4,-3,14,-6.6,-9,0.2
Cc1ccc(CCN2CC(C(=O)NCc3cccnc3)CC2=O)cc1 (stereo not given),0.76,4.6,i,-4.2,.,8,4,20,-5,.
CCOc1ccc(CCNC(=O)CCCn2c(=O)c3cccn3c3cccnc32)cc1OCC,0.71,3.9,i,-0.5,3,3,6,3.6,18,-0.6
COc1ccc(-c2nn(C)c(=O)c3ccccc23)cc1NC(=O)COc1ccc(C)cc1,0.67,-0.4,.,.,62,15,7,0.2,-28,0.0
c1ccc(Sc2ccccc2CN2CCCC2)cc1,0.62,1.7,i,-0.1,.,6,-5,-2.5,25,0.9
Cc1nc([N+](=O)[O-])nn1C12CC3CC(CC(Br)(C3)C1)C2,0.65,1.7,.,.,-2,.,.,.,59*,0.2
CCOC(=O)Cn1c(=O)oc2cc(S(=O)(=O)NCCc3ccc(OCC)c(OCC)c3)ccc21,0.7,1.3,.,.,5,.,.,.,51,-0.5
C/C(N)=C(/C#N)C(=O)CSc1nnc(COc2cc(C)ccc2C)o1,0.68,0.5,i,2.9,-8,13,5,0.3,7,0.0
CC(=O)Nc1ccccc1C(=O)N1CC2(C)CC1CC(C)(C)C2 (stereo not given),0.74,4.8,.,.,-1,.,.,.,-9,1.1
Cc1cc(C)cc(NC(=O)C2(c3cccs3)CCOCC2)c1,0.66,5.2,i,1.6,.,-14,1,-0.1,-3,0.2
NC(=O)c1ccccc1NC(=O)Cc1cccs1,0.68,-2.8,.,-12,.,6,14,0.7,-8,-0.6
O=C(O)c1ccccc1C(=O)c1cccc2c(Br)cccc12,0.67,4.8,i,-10,.,-35,-65,-7.4,.,.
COc1ccc(-c2cc3c(=O)n(CC(=O)NCc4cccnc4)ncn3n2)cc1,0.79,-6.9,i,0.1,-6,0,14,-1.3,5,-2.9
Cc1ccc(C)n1Cc1ccccc1Cl,0.69,4.4,i,0.0,-7,12,6,2.9,-12,-2.0
CN1CCN(c2ccc(CNC(=O)c3cc4ccccc4o3)cc2)CC1,0.71,6.8,i,.,-7,5,5,-0.4,4,-1.3
CSc1ncccc1C(=O)Nc1ccncc1,0.74,-2.1,i,1.6,8,1,9,-0.2,1,0.0

# New compounds follow.
SMILES,E coli growth,UCH37 DUB inh,FGF22 binding,AF4-AF9 inh,Beta apoptosis,rRNA inh HTS,rRNA inh HTS OD600,rRNA inh HTS RFP,T cruzi inh,A1 inh
COc1ccc(CCNC(=O)C2(C)CCC(=O)N2Cc2ccc(C)cc2)cc1OC (stereo not given),0.67,0.8,i,-2.1,0,5,5,-3.6,2,-2.0
CC1CC(C)CN(C(=O)COC(=O)c2ccc3ccccc3n2)C1 (stereo not given),0.62,-0.7,i,?,3,-2,-2,-2.1,.,0.3
Cc1cc(C)n(-c2nc3ccccc3nc2Nc2ccc3c(c2)OCO3)n1,0.68,-2.8,i,17,12,4,-2,-2.1,18,-0.6
CCC(=O)Nc1nonc1-c1nc2ccccc2n1Cc1cccc2ccccc12,0.74,-0.7,.,.,15,.,.,.,18,0.0
S=C(NCCCN1CCOCC1)N1CCN(c2nc(-c3ccccc3)cs2)CC1,0.61,2.0,.,15,6,-22*,-10*,1.7*,7,1.3
CC(C)OC(=O)CSc1nnnn1-c1ccc2c(c1)OCCO2,0.64,0.4,.,.,.,.,.,.,0,-1.2
O=C1C2CCCN2C(=S)N1C1CCCCC1 (stereo not given),0.68,1.6,i,0.2,-1,6,1,-2.2,-9,1.2
CC(C)Nc1c([N+](=O)[O-])c(=O)oc2ccccc12,0.67,9.3,i,-0.9,-4,11,7,-1.7,4,0.1
CC(c1ccccc1)C(Cc1nc2ccccc2[nH]1)c1nc2ccccc2[nH]1 (stereo not given),0.7,5.6,.,.,1,.,.,.,14,-0.6
O=C1OC(c2ccccc2)=C/C1=C/N1CCOCC1,0.68,19,i,4.7,1,4,1,-0.5,-2,0.3
Cc1cccnc1NC(=O)C(c1ccccc1)c1ccccc1,0.7,3.1,i,0.2,-8,2,0,-1.2,-3,0.8
CC(=O)N1CCCc2cc(S(=O)(=O)N3CCCC(C(=O)Nc4cccc(C)c4)C3)ccc21 (stereo not given),0.67,4.0,i,0.8,2,-1,0,5.1,17,-1.1
COc1ccccc1NC(=O)c1ccc(C(=O)Nc2ccccc2OC)nc1,0.71,2.6,i,-2.7,-4,2,5,0.3,-7,0.6
C=CCn1c(=S)sc2c(=O)[nH]c(C)nc21,0.64,5.9,i,-0.6,1,4,2,-0.2,-2,-0.4
CC(C)(C)NC(=O)Cn1c(=O)n(CC(=O)NC(C)(C)C)c2ccccc21,0.7,5.2,i,0.1,.,11,8,1.2,8,1.3
O=C(CSc1nc(=O)[nH]c2c1CCCC2)Nc1cc(C(F)(F)F)cc(C(F)(F)F)c1,0.71,1.8,i,-7.4,.,-1,-8,-2.4,28,0.0
O=C(CCNS(=O)(=O)c1cccs1)N1CCCCCC1,0.69,0.5,.,.,-6,.,.,.,5,0.5
COc1ccc(NC(=O)COc2ccc(C)cc2)c([N+](=O)[O-])c1,0.72,5.7,i,0.6,-2,20,25,1.5,-1,-0.8
CCN(CC(=O)NCc1ccc(Cl)cc1)C(=O)CSc1ccccc1,0.65,8.0,i,-4.5,-8,-4,-19,-4.5,-1,0.7
O=C(O)CNCC1COc2ccccc2O1 (stereo not given),0.71,-1.2,.,.,-1,.,.,.,3,1.2
COc1cc2[nH]c(C(=O)NCc3ccccc3)cc2c(OC)c1OC,0.67,-28,i,2.5,2,-4,-17,-3.6,10,-0.5
O=C(NCCN1CCOCC1)c1cccc(S(=O)(=O)N2CCCCC2)c1,0.7,0.3,i,-1.3,-6,10,8,-0.6,-8,0.3
O=Cc1ccc(OCc2cccc(C(F)(F)F)c2)cc1O,0.61,2.2,.,2.4,0,-23,-20,-1.5,-4,-0.1
COc1ccc(CN2CCN(C(=O)c3ccco3)CC2)c(OC)c1OC,0.67,3.3,i,-14,-4,9,-7,-3.1,2,0.1
CN1CCN(CC(=O)N2c3ccccc3C(C)(c3ccc(Cl)cc3)CC2(C)C)CC1 (stereo not given),0.71,1.3,.,.,-4,.,.,.,20,0.7

# Entries shown so far that have a thiophene ring, fused or not (four):
SMILES,E coli growth,UCH37 DUB inh,FGF22 binding,AF4-AF9 inh,Beta apoptosis,rRNA inh HTS,rRNA inh HTS OD600,rRNA inh HTS RFP,T cruzi inh,A1 inh
NC(=O)C1CCN(C(=O)CSc2ccsc2[N+](=O)[O-])CC1,0.68,1.0,i,0.6,.,.,.,.,.,.
Cc1cc(C)cc(NC(=O)C2(c3cccs3)CCOCC2)c1,0.66,5.2,i,1.6,.,-14,1,-0.1,-3,0.2
NC(=O)c1ccccc1NC(=O)Cc1cccs1,0.68,-2.8,.,-12,.,6,14,0.7,-8,-0.6
O=C(CCNS(=O)(=O)c1cccs1)N1CCCCCC1,0.69,0.5,.,.,-6,.,.,.,5,0.5

# (listing goes on)
SMILES,E coli growth,UCH37 DUB inh,FGF22 binding,AF4-AF9 inh,Beta apoptosis,rRNA inh HTS,rRNA inh HTS OD600,rRNA inh HTS RFP,T cruzi inh,A1 inh
Cc1ccc(SCCNC(=O)c2ccc(CN3CCOCC3)cc2)cc1,0.7,0.0,i,-0.3,-2,5,-2,1.5,0,0.4
COc1ccccc1NC(=O)c1ccc(NC(=O)CSc2ncccn2)cc1,0.68,-1.0,i,-0.5,-1,8,-3,5.0,-6,0.6
CCc1ccccc1NC(=O)C1CCCN1S(=O)(=O)c1ccc(-c2ccc(=O)[nH]n2)s1 (stereo not given),0.63,-0.6,i,1.4,3,1,-4,1.4,11,0.1
CCOc1ccccc1NC(=O)COC(=O)CNS(=O)(=O)c1ccc(C)cc1,0.68,4.1,.,.,-10,.,.,.,-11,0.0
NC1=NC(=O)/C(=C/c2ccccc2OCC(=O)Nc2ccc(F)cc2)S1,0.73,-9.2,i,-0.9,-9,2,7,-2.4,.,-0.4
Cc1ccc(-c2cc(C(=O)N3CCCc4ccccc43)c3ccccc3n2)cc1,0.73,0.1,.,.,-5,.,.,.,37,0.1
COCCOc1cc(-n2ccnc2SC)c(Cl)cc1Cl,0.77,4.4,.,.,.,.,.,.,-2,1.0
Cc1ccnc(NC(=O)c2ccc3c(c2)S(=O)(=O)c2ccccc2C3=O)c1,0.68,3.9,i,-7.4,-9,-7,-3,1.1,-6,-7.4
Cn1cc(/C=N\O)nc2c(=O)n(-c3ccccc3)c(=O)nc1-2,.,.,i,-1.5,2,30,8,26,-9,-0.6
CC(NC(=O)CC1Nc2ccccc2NC1=O)c1ccccc1 (stereo not given),0.73,-9.1,.,.,-7,.,.,.,-26,-0.1
CCOc1ccc(C(=O)NC(=S)NCc2cccnc2)cc1[N+](=O)[O-],0.6,0.8,i,0.3,-10,22,23,-1.1,6,-0.2
CCOC(=O)c1c(S(=O)(=O)N2CCCC(C)C2)c(C)n(C)c1C (stereo not given),0.7,2.7,i,1.3,-2,6,-2,0.4,7,0.3
CC(=O)n1c(=O)c2ccccc2c(=O)n1-c1ccccc1,0.65,7.4,i,1.4,0,9,14,-5.3,-5,-0.7
CN(C)CC(C)(C)CNC(=S)Nc1cc(S(=O)(=O)N2CCOCC2)ccc1Cl,0.68,2.3,i,0.5,-6,-2,-4,-0.8,53,-1.6
COc1ccc(/C=C(\C#N)C(=O)NCC(c2ccc(F)cc2)N2CCOCC2)cc1 (stereo not given),0.73,9.2,i,15,-13,-23,-32,4.1,4,?
Cc1cc(C(=O)COC(=O)c2ccccc2NCCO)c(C)n1CC1CCCO1 (stereo not given),0.68,-102,i,1.1,-5,-4,-7,-2.1,6,-3.5

# Screening results from PubChem BioAssay.
